Sfp inh – blocks B. subtilis Sfp PPTase activity; Potency, µM, inactives show max response, negative = inhibition, actives largely listed as inhibitors; hit rate 3.5% among 310,000; AID 1490; Biochemical Sfp PPTase activity, qHTS; active = well fitted inhibition curve with a large enough effect; inconclusive = small, poorly fitted or top-dose-only effect, or another doubt; inactive = no such curve, though single readings can be large or run the other way;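 also: the enzyme is Sfp with the accession as filed and its product quenches rhodamine fluorescence; potency is read from the fitted curve at half-maximal effect; 0% = enzyme reaction without inhibitor and -100% = no enzyme wells; top concentration of the series not given in the record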
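Reaction rates are the 30-min fluorescence difference (ex 525, em 598 nm) in wells containing 15 nM Sfp, 5 uM rhodamine-CoA and 12.5 uM BHQ-2-YbbR at pH 7.6 with 10 mM MgCl2.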
TRPML1 blocker – blocks the human TRPML1 channel | Q9GZU1 | TRPML1-inducible cells, Ca2+ dye fluorescence, FDSS; active compounds read low; inhibition of EC80 agonist-evoked calcium signal | activity change, negative = inhibition, % (no concentration beside the values) | hit rate 0.02% among 390,000 | AID 624415; in the data active means activity change below about -50%; inconclusive means about -30% to -50%; inactive means above about -30%;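 also: stimulus is agonist 54-4 at its EC80 concentration; % is scaled to controls: 0 for no effect and ±100 for the full control effect; compound concentration not given in the record; the text of the record puts the active cut at -80%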
Target sequence (Q9GZU1 whole entry, looked up): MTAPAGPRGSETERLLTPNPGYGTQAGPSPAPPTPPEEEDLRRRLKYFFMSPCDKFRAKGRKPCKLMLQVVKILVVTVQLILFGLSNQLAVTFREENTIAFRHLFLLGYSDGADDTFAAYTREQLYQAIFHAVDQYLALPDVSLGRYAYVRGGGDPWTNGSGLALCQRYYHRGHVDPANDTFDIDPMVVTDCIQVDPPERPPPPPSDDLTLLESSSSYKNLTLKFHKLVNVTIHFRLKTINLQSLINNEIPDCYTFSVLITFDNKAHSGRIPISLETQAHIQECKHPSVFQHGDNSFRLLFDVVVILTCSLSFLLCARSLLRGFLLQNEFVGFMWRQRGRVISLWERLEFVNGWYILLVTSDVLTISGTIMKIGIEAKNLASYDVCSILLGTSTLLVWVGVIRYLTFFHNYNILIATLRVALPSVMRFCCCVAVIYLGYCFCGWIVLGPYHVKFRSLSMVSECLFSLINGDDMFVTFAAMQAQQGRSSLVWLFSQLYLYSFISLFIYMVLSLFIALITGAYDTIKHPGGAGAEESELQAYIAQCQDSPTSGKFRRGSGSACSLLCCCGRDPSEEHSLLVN
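TRPML1-DL cells, Tet-induced overnight (~16 h, 37 °C) at 1,500 cells/well, were loaded with Ca8 no-wash dye plus quencher for 45-90 min at room temperature. Compounds were pinned during FDSS kinetic reading; agonist 54-4 at EC80 (4 uM final) then added.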
TRPML1 ag – human mucolipin-1 channel agonism; Q9GZU1; TRPML1-expressing cells, Ca2+ dye fluorescence, FDSS; host cell line not named in the record; reference of the full effect not given here; activation, % (no concentration beside the values); hit rate 0.12% among 410,000; AID 624414; in the data active = activation above about 50%; inconclusive = about 30% to 50%; inactive = below about 30%; also: 0% is about no effect; the text of the record puts the active cut at 80%
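Kinetic FDSS Ca2+ read in Tet-induced TRPML1-DL cells (ABD Ca8 dye plus quencher, 45-90 min RT loading): baseline, then compound, then 110 s agonist window; EC80 agonist 54-4 at 4uM final added afterwards for a 110 s antagonist window.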
ClpP mod – qHTS Assay for Activators of ClpP. hit rate 1.9% among 340,000. purified B. subtilis ClpP, FRET peptide cleavage, 20 min. Potency, µM (highest dose often 57.5 µM), inactives show at the top dose activity change, negative = active. ATP-dependent Clp protease proteolytic subunit (Bacillus subtilis (strain 168)), P80244; active = well fitted falling curve with a large enough effect; inconclusive = small, poorly fitted or top-dose-only effect; inactive = no such curve, though single readings can be large or run the other way; also: potency is read from the fitted curve at half-maximal effect; the source files actives as falling curves though it sought activators and does not explain the sign; nearly all actives have a fitted effect of over 65% in size; many hits overshoot -100%
Target sequence (P80244 whole entry, looked up): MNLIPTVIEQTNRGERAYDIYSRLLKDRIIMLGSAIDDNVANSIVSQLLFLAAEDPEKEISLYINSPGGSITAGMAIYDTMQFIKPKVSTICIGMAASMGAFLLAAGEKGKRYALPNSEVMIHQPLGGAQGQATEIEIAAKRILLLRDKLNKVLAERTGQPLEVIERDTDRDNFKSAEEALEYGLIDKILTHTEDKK
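FRET quenching reversal measured ClpP activation: 10 microg/mL B. subtilis ClpP at pH 8 with the FRET-FV decapeptide, read at 430 nm after 320 nm excitation. The 20-min minus 0-min signal was scaled between DMSO/no-enzyme wells and ADEP (5.8 microM final).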
TRPV1 PAM – human TRPV1 potentiation; Q8NER1; TRPV1-expressing cells, Fluo-8 calcium influx, capsaicin EC20 potentiation; host cell line not named in the record; control for the full effect not named in the record; potentiation, % at 8.33 µM; hit rate 0.02% among 320,000; active means potentiation above 80%; inconclusive means 30% to 80%; inactive means below 30%; also: 0% is about no effect
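Cells expressing TRPV1 were dye-loaded with Fluo-8 and read kinetically: 10 s baseline, 3 min after compound (agonist portion), then 2 min after EC20 capsaicin (allosteric enhancer portion). Calcium-bound dye fluorescence at 480/520 nm.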
PINK1 modulator – PINK1 expression modulation. AID 624263. Potency, µM (top dose mostly 76.6 µM), for the others: at the top dose activation (PINK1 increase), hits mostly activators. hit rate 0.2% among 410,000. PINK1 immunofluorescence, high-content cytometry, 24 h; active = well fitted activation curve with a large enough effect; inconclusive = small, poorly fitted or top-dose-only effect; inactive = flat fitted curve, though single readings scatter; cell line not stated here;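 also: potency is read from the fitted curve at half-maximal effect; % of control where 0% means no effect; nearly all actives have a fitted effect of over 65% in size; a mitochondrial uncoupler was the plate control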
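Stable cell line treated 24 h with compounds at 5 concentrations (CCCP controls), then fixed and immunostained for PINK1 plus nuclear and cell stains; PINK1 immunofluorescence quantified by laser-scanning microplate cytometry.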
Menin MLL FP FL – inhibitors of human menin-MLL interaction, wild-type MLL peptide | Fluorescence polarization, fluorescein-MLL peptide displacement from menin | FP activity change, % at 61.4 µM | 290,000 tested, under 10 active | AID 1766; inconclusive = falling polarisation curve, or a change in total fluorescence; inactive = total fluorescence flat and polarisation flat or rising; no compound was filed as active; the % refers to the polarisation; negative = inhibition;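 also: % of control where 0% means no effect; inhibitors lower the polarisation; unlabelled MLL peptide was the positive control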
* = called active by the depositor; u = inconclusive; x = not tested or not shown; & = joins results of further samples; [ ] = dose if it differs, or a comment.

Compound,TRPML1 blocker,PINK1 modulator,Sfp inh,TRPML1 ag,Menin MLL FP FL,TRPV1 PAM,ClpP mod
Cc1n[nH]c(=O)c2c(NC(=O)CSc3nnc(-c4ccco4)n3C)oc(C)c12,0,1.7%,x,-0.6,x,3,0.4%
CC(=O)OCC(=O)[C@@]1(OC(C)=O)[C@@H](C)C[C@H]2[C@@H]3C[C@H](F)C4=CC(=O)C=C[C@]4(C)[C@@]3(F)[C@@H](O)C[C@@]21C,4,1.6%,7%&5%,0.6,3.7&0.1,15,-3.6%
CCOC(=O)c1sc2nc(N3CCOCC3)c3c(c2c1N)CCN(C)C3,x,x,-10%,x,2.7,-1,x
CCSc1nnc(NC(=O)Cn2cnc3ccccc3c2=O)s1,-11,0.5%,-1%,0.4,0.7,12,-3.0%
COc1ccc(CCNC(=O)Cc2c(C)c3ccc(O)c(C)c3oc2=O)cc1OC,9,-0.3%,x,1.6,x,x,3.9%
COc1ccc(S(=O)(=O)N2CCCCC2)cc1NC(=O)CN1C(=O)NC(C)(C2CC2)C1=O (configuration not stated),-8,-3.6%,x,-0.6,x,6,-1.0%
Cc1cc2c(cc1S(=O)(=O)CCC(=O)Nc1cccc(C(F)(F)F)c1)OCC(=O)N2,1,-0.3%,7%,-0.6,x,4,-1.6%
COc1cc(-c2nnc(-c3cc(-c4ccccc4)nc4ccccc34)o2)cc(OC)c1OC,9,1.1%,x,0.6,x,x,x
COc1ccc(C2=C(C)C(=NCCCN3CCN(c4cc(C)ccc4C)CC3)NS2(=O)=O)cc1,-4,1.2%,x,0.4,x,x,-21%
COCCN(CCOC)S(=O)(=O)c1ccc(/C(O)=C(\C#N)c2nc3ccccc3[nH]2)cc1,-12,1.4%,8%,-0.3,-0.1,-2,0.7%
COc1ccc(OCCNc2cc(Cl)ccc2[N+](=O)[O-])cc1,21,x,3%,3.1,3.0,6,0.6%
O=C(Nc1ccc(S(=O)(=O)Nc2nccs2)cc1)c1ccccc1OC(F)F,17,-0.7%,x,3.3,x,8,-3.3%
O=C(CCCOc1ccc(Cl)cc1)N1CCOCC1,2,-1.1%,23%,-0.2,5.2,x,-4.6%
Cc1ccc(NC(=O)C2CCCN2S(=O)(=O)c2cccc3cccnc23)cc1F (configuration not stated),5,3.2%,-22%,1.1,0.2,1,2.7%
O=C(NCC(c1cccs1)N1CCOCC1)C1CCN(S(=O)(=O)c2ccccc2C(F)(F)F)CC1 (configuration not stated),-5,-0.5%,3%,-0.8,x,1,-2.0%
Cc1ccc(NCC(=O)N/N=C/c2ccncc2)cc1,56,-1.7%,5%,0.0,4.9,-11,-3.2%
Cc1cccc(NC(=O)CSc2nnc(NC(=O)Nc3ccccc3)s2)c1C,-11,0.8%,x,-0.1,x,x,0.1%
COc1ccc([N+](=O)[O-])cc1CSc1nnc(NC(C)=O)s1,41,4.6%,11%,0.9,-3.4,-6,-0.7%
O=C(Cc1ccccc1)Nc1ccc(NC(=S)NC(=O)c2ccccc2)cc1,-3,8.8%,-3%,0.0,x,9,1.9%
CN(CC(=O)OCC(=O)NC(=O)c1cccn1C)S(=O)(=O)c1ccc(Cl)cc1,-5,-0.7%,-6%,0.4,-2.1,11,-4.6%
Cc1ccc(NC(=O)CNC(=O)c2ccc(C)o2)cc1,4,-0.2%,3%,-0.1,13,14,0.0%
CCNS(=O)(=O)c1ccc(NC(=O)Cc2ccc(F)cc2)cc1,-1,-7.1%[38.3 µM],15%,-0.1,2.8,18,1.0%
CC1=C(C(=O)N2CCN(c3cccc(Cl)c3)CC2)C2(CCCCC2)OC1=O,-1,2.7%,x,-0.6,x,x,-1.2%
Cc1nnc(N(C)C(=O)c2cnccn2)s1,7,0.3%,18%,0.5,3.3,10,x
COC(=O)c1nn(-c2c(C)n(C)n(-c3ccccc3)c2=O)cc1O,15,1.8%[38.3 µM],-6%,0.8,1.1,-3,-3.6%
CNC(=O)COc1ccc(Nc2nnc(-c3ccc(C)c(S(N)(=O)=O)c3)c3ccccc23)cc1,15,-0.5%,7%,-1.4,1.2,-12,-0.9%
CCc1ccc(OCC(=O)N(Cc2ccc(OC)cc2)C2CCS(=O)(=O)C2)cc1 (configuration not stated),5,-0.4%,x,-0.4,x,x,-1.4%
Cc1ccc(C(=O)NC(=S)NCC(=O)c2ccccc2)cc1,-5,-1.6%,-9%,0.5,2.1,3,1.5%
Nc1nonc1OCCN1CCN(c2ccc([N+](=O)[O-])c3cccnc23)CC1,10,-1.0%,9%,2.0,3.0,-8,x
Cc1ccc(-c2nnc(C)c(N3CCOCC3)n2)cc1,4,2.1%,-7%,0.1,5.5,-39,1.7%
CCN(CC)c1ccc([C@H]2[C@@H]3CCCC[C@]3(O)CCN2CC(=O)NCc2ccco2)cc1,-14,0.2%,9%,-0.3,-6.1,-8,-0.6%
Cc1ccc(CN2c3ccccc3-c3nc(SCC(=O)Nc4c(C)cc(C)cc4C)ncc3S2(=O)=O)cc1,20,1.0%,x,1.4,x,x,-0.4%
CSCCCN1CCC(n2nccc2NC(=O)CCCc2ccccc2)CC1,11,-0.5%,4%,-0.2,x,5,0.8%
CCCNC(=O)NC(=O)CSc1nc2cc(C(=O)OC)ccc2c(=O)n1-c1ccccc1,-12,2.2%,16%,0.2,3.6,-2,0.9%
COc1ccc(CCN2CCCC(CN(C)Cc3cc(OC)c(OC)c(OC)c3)C2)cc1 (configuration not stated),4,-1.3%,18%,-0.5,2.2,6,-0.9%
Cc1ccc(C)c(NS(=O)(=O)c2cc3c4c(c2)CC(=O)N4CCC3)c1,5,0.3%,14%,-0.6,x,3,-1.3%
COc1ccc(N2CCN(C(=O)c3ccc(NS(=O)(=O)c4cccc(F)c4)cc3)CC2)cc1,6,2.3%[38.3 µM],3%,0.8,1.5,11,-0.2%
O=C(CCCn1c(=O)[nH]c2ccsc2c1=O)N1CCN(Cc2ccc3c(c2)OCO3)CC1,13,-1.9%,-10%,-0.2,0.2,-12,0.7%
CC1=CC(=O)N(c2cccc3c(N4C(=O)C=C(C)C4=O)cccc23)C1=O,10,8.9%,x,0.6,x,x,-16%
COc1ccc(N(CC(=O)NC2CCCCC2)C(=O)c2ccc(C)s2)cc1OC,-6,2.7%,-2%,-0.6,-3.0,-1,-0.3%
CCc1c(C)c(C#N)c2nc3ccccc3n2c1Nc1cccc(C(F)(F)F)c1,43,6.1%,x,2.9,x,x,-9.6%
O=C(Nc1cc(=O)[nH]c2ncnn12)c1ccco1,19,-0.2%,0%,-0.2,1.4,3,-1.3%
CC(C)n1ncc(N2CCOCC2)c(Cl)c1=O,x,0.4%,9%,x,-7.2,1,-3.5%
O=C(CN1C(=O)NC2(CCCc3ccccc32)C1=O)Nc1ccccc1OC(F)F (configuration not stated),-1,1.0%,x,0.9,x,-3,-0.6%
CCCn1c(C(C)Nc2nc(-c3cccc(Br)c3)cs2)nc2ccccc21 (configuration not stated),-3,6.7%,-13%,0.7,-1.8,18,-3.6%
CC(C)NC(=O)/C(C#N)=C/c1ccc2c(c1)OCCO2,-5,-0.6%,7%,0.1,-5.2,-6,-2.3%
Cc1ccnc(NC(=O)CNC(=O)c2cccs2)c1,28,-1.3%,x,1.5,x,-3,x
Cc1cc2c(cc(C(=O)OCC(=O)NCc3ccco3)n2C)s1,2,11%,-9%,-0.7,4.3,12,-1.9%
Cc1nc2nc(COc3ccccc3)[nH]n2c(=O)c1C,3,0.6%,6%,-0.9,-0.4,0,1.1%
COc1ccc(C)cc1NC(=O)C(OC(=O)c1cnc(C)cn1)c1ccccc1 (configuration not stated),13,-2.1%,x,1.8,x,0,3.3%

Other compounds follow:
Compound,TRPML1 blocker,PINK1 modulator,Sfp inh,TRPML1 ag,Menin MLL FP FL,TRPV1 PAM,ClpP mod
CCC(Cn1nnc2ccccc2c1=O)NC(=O)Nc1ccc(C)cc1C (configuration not stated),15,-0.7%,x,1.6,x,x,-1.3%
COc1cc(C(=O)NC(c2ccccc2)c2ccccc2)cc(Cl)c1OC,5,11%,22%,2.7,-1.0,0,-0.4%
COc1ccccc1-n1c(SCC(=O)N2CCOCC2)nc2ccccc2c1=O,-5,-0.5%,0%,0.5,-3.4,-11,x
CCOCCCNC(=O)C1CCN(C(=O)N(C)C)CC1,3,2.8%[38.3 µM],11%,-0.5,1.9,3,1.6%
Cc1ccc(Sc2ncccc2/C=N/O)cc1,-19,-2.2%,-2%,3.3,19,6,x
CCOC(=O)C1=C(O)/C(=C\c2ccc(O)c(OCC)c2)N=C1C,-9,1.7%,-1%,-0.5,u,18,-8.8%
Cc1[nH]n(-c2cccc3ccccc23)c(=O)c1C=Nc1ccc2[nH]c(=O)[nH]c2c1,4,1.5%,26%,-1.0,2.1,-4,1.7%
CCC(=O)N1c2ccc(S(=O)(=O)NCc3cccc(OC)c3)cc2CC1C (configuration not stated),8,0.5%,x,-0.3,x,x,-0.3%
Cc1nnc(SCC(=O)NC2CCCCC2C)s1 (configuration not stated),9,2.4%,-1%,0.4,4.6,-1,-0.1%
COc1ccc(CC(=O)Oc2ccc(C)cc2C)cc1,-1,0.0%,6%,0.7,3.6,0,0.3%
CNc1ccc(/C=C2\C=Cc3ccccc32)cc1OC,x,1.2%,x,0.8,x,x,-2.7%
Clc1ccc(COn2c(-c3ccccc3)nc3ccccc32)cc1,63,-4.3%[38.3 µM],-47%,4.7,-0.3,-13,-3.4%
Cc1[nH][nH]c(=O)c1N=Nc1ccc(S(N)(=O)=O)cc1,-22,-0.4%,x,0.0,x,x,-2.2%
Cc1c(C(=O)NCc2ccc3c(c2)OCCO3)sc(=O)n1Cc1ccc2c(c1)OCO2,x,-1.4%,x,-0.8,x,x,1.3%
COc1ccc(C(=O)N2C=Cc3ccccc3C2C(N)=O)cc1 (configuration not stated),8,5.3%,x,-0.4,x,x,0.1%
Cc1ccc(NC(=O)NCc2cccnc2)cc1,0,1.0%,13%,0.7,x,-7,1.8%
